Screens deposited in PubChem by Broad Institute.
T cruzi repl: T. cruzi replication inhibition | T. cruzi beta-gal in NIH3T3, luminescence, 90 h | inhibition, % (no concentration beside the values) | 300,000 compounds, 1.4% hits;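 active means mean inhibition across valid replicates above about 55%, limit read from the data; inconclusive means mean below that limit but half or more replicates reach it; inactive means mean below it, under half of replicates reach it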;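 further: signal also drops with host cell toxicity which is not excluded here; 0% = plate median of DMSO wells and 100% = zero luminescence signal; higher percent means less beta-gal luminescence so fewer parasites; stock transfer was 50 nL into about 50 µL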
MLL AF4-AF9 inh: blocks AF4 peptide binding to human AF9 | P42568 | AlphaScreen, biotin-AF4 peptide binding to FLAG-AF9 | inhibition, % at 10 µM | 350,000 compounds, 0.47% hits;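 active means every replicate reaching a set inhibition limit, whatever the replicate mean, cut at about 25% in these data; inconclusive means mean inhibition reaches that limit but some replicates miss it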;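 further: 0% = plate neutral control median and 100% = total signal loss; the record names both 10 and 1 µM as test concentration; the first replicate is given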
Target sequence (P42568 whole entry, looked up): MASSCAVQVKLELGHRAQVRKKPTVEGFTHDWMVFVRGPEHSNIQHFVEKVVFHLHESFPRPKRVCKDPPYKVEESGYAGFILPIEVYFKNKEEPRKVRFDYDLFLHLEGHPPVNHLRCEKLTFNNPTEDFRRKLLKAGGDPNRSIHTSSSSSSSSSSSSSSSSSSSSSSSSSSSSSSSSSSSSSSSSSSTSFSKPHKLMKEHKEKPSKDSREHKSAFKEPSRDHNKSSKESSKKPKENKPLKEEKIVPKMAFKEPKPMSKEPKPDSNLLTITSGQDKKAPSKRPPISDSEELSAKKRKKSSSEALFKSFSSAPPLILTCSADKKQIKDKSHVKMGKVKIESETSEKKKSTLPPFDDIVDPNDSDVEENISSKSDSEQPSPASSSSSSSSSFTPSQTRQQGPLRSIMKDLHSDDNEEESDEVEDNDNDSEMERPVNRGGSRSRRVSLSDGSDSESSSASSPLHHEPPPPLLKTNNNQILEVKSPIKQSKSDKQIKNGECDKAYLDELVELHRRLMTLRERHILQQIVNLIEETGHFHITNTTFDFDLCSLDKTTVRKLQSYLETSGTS
Ecoli rRNA inh: inhibits bacterial ribosomal RNA function over humanized ribosomes; 350,000 compounds, 1.6% hits; GFP signal change (wild-type ribosome), % (test concentration not listed); AID 720706; E. coli WT GFP vs humanized-ribosome RFP mutants, fluorescence, 24 h; hits give low values; DMSO median 0, no signal -100;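 active means significant combined selectivity score with lowered wild-type GFP, culture density cut under 30%, mutant RFP and density less affected; inactive means any of these conditions unmet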; further: one replicate is shown; some compounds called inactive have numbers as strong as hits
Calb FLC: affects C. albicans growth with fluconazole | C. albicans CaCi-2 (fluconazole-resistant clinical isolate) + fluconazole, Alamar Blue growth, 48 h | growth inhibition, % (test concentration not listed) | 300,000 compounds, 0.57% hits | AID 1979;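 active means most replicates above 75%; inconclusive means exactly half above 75%; inactive means most below 75%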;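 further: all wells also contain fluconazole at 8 µg/ml as a sub-toxic cotreatment; 0% = median of DMSO wells and 100% = median of geldanamycin control wells; wells of about 8 µL received 7.5 nL stock; the first replicate is given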
Beta cell apopt: beta cell apoptosis inhibition; INS-1E cytokine-induced death, ATP luminescence, 48 h; percent of positive-control rescue, neutral wells zero; protection from apoptosis, % (concentration not given with the values); 300,000 compounds, 0.8% hits; AID 435005;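 active means all replicates at 75% or more, or half of them and the mean; inconclusive means half reach 75% but not the mean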;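 further: 0% = cytokine-treated negative control wells and 100% = positive control rescue; higher means more ATP so stronger rescue from cytokine killing; wells of about 40 µL received 100 nL stock; the first replicate is given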
ALR inh: blocks human ALR sulfhydryl oxidase activity; inhibition, % (test concentration not listed); purified ALR, DTT oxidation, H2O2 HRP-luminol luminescence; AID 485317; 290,000 compounds, 3.8% hits;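 active means mean and each replicate at 75% or more; inconclusive means only one of the two met; inactive means neither met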;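 further: stock transfer was 7.5 nL into about 7.5 µL; 0% = neutral wells and 100% = wells with inactivated enzyme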
Target sequence (P55789 whole entry, looked up): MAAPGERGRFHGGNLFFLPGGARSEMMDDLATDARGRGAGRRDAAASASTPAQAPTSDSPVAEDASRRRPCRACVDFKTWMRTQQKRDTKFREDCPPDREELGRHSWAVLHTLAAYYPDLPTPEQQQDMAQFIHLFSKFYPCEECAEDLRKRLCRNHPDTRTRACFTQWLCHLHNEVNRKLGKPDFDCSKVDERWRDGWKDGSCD
FGF22 binding: shifts melting point of recombinant human FGF22. recombinant FGF22 thermal shift, SYPRO orange fluorescence; percent of sucrose octasulfate shift, DMSO zero. calls only at 9.99 µM. 340,000 compounds, 1.5% hits. AID 651658;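 active means melting point raised past a set limit in the mean and every replicate; inconclusive means no clear call; three in four hits are not shown here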
Target sequence (Q9HCT0 whole entry, looked up): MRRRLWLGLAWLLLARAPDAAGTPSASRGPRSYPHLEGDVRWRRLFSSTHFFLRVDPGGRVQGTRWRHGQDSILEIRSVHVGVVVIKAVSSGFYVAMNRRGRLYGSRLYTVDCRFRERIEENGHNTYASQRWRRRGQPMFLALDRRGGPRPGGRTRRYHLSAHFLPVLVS
RanGTP-Imp inh: inhibitors of RanGTP-importin-beta interaction, primary screen, biochemical, FRET, CFP-Ran, YFP-importin-beta, homogeneous. cell-free CFP-Ran/YFP-importin-beta FRET ratio. inhibition, % (no concentration beside the values). 300,000 compounds, 1.1% hits;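 active means most replicates above 15%; inconclusive means exactly half above 15%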;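 further: 0% = DMSO wells and 100% = Ran loaded with GDP instead of GTP; wells of about 40 µL received 100 nL stock; the first replicate is given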
Ecoli rRNA inh OD600: second read-out of Ecoli rRNA inh, no call of its own (marks repeat the call); OD600 change, %; measured here: OD600 growth;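 optical density of the mix in the first replicate; 0 = DMSO median and -100 = no signal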
Ecoli rRNA inh RFP: also measured in Ecoli rRNA inh; calls as there; RFP signal change, %; measured here: RFP humanized mutant strains;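 first replicate; 0 = DMSO median and -100 = no signal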
Active calls of the source: *; i = inactive; ? = inconclusive; / = not tested or not shown. The list is partial; count on the stated rates, not on these rows.

SMILES	T cruzi repl	MLL AF4-AF9 inh	Ecoli rRNA inh	Ecoli rRNA inh OD600	Ecoli rRNA inh RFP	Calb FLC	Beta cell apopt	ALR inh	FGF22 binding	RanGTP-Imp inh
COc1ccc(N=Nc2nc3ccc(Br)cc3n2C)cc1	-10	/	/	/	/	15	8	-44	/	-13
COC(=O)c1ccc(/C=N/NC(=O)c2ccccc2Cl)cc1	-16	/	/	/	/	-4	/	-3	/	3.1
CCOC(=O)c1sc2ncn(/N=C/c3ccc(O)cc3)c(=O)c2c1C	12	-7.0	-4	13	-0.4	-5	-2	-10	i	-3.5
Cn1cnnc1Sc1ccc(C(F)(F)F)cc1[N+](=O)[O-]	-1	0.1	4	7	3.5	-4	/	-13	i	1.8
O=S(=O)(c1ccccc1)N(Cc1ccccc1)c1ccccn1	-3	/	/	/	/	0	-5	-7	/	0.3
Cn1c(=O)c2c(SCc3ccccn3)nc(CC(C)(C)C)nc2n(C)c1=O	20	-5.8	1	-6	2.8	4	18	-15	i	-1.0
CCS(=O)(=O)C(=C1Nc2ccccc2N1)S(=O)(=O)CC	-6	/	/	/	/	-3	5	0	/	0.5
Cc1ccccc1Cn1nc(C)c(NC(=O)C(F)(F)F)c1C	8	2.5	9	-4	-0.6	-18	-3	0	i	3.1
CC(OC(=O)c1ccc(NS(=O)(=O)c2ccc3[nH]c(=O)[nH]c3c2)cc1)C(=O)Nc1cccc(Cl)c1Cl (stereo not drawn)	-14	0.1	3	0	12	-3	-5	-3	i	-2.5
Cc1nc2ccccc2c(=O)n1-c1ccc(NS(=O)(=O)c2ccccc2)cc1	-9	-11	-1	0	2.2	10	/	-9	i	8.5
CCOC(=O)N1CCN(C(=O)COc2ccc(Cl)c(C)c2)CC1	5	0.3	9	-3	0.5	-3	-3	-20	i	0.0
Cc1sc2ncnc(NCc3cccnc3)c2c1C	-20	0.0	0	-4	0.6	-14	10	-9	i	37*
CCOC(=O)c1ccc(/C=C2/C=C(c3ccccc3)N(c3ccc(Cl)c(C(=O)O)c3)C2=O)cc1	-8	/	/	/	/	24	-7	7	/	?
COC(=O)[C@@H]1CC[C@H](C)[C@@H](c2ccc(C)cc2)N1C(=O)c1ccc(/C=N/OCC[C@@H]2C=C[C@H](OC(C)=O)[C@@H](COC(C)=O)O2)cc1	5	/	/	/	/	9	-23	/	/	-1.9
Cc1nn(CC(=O)N2CCCc3ccccc32)c(C)c1[N+](=O)[O-]	6	0.2	8	12	1.8	-6	-5	-4	/	?
COc1cc(S(=O)(=O)N2CCC(O)(c3cccc(C(F)(F)F)c3)CC2)ccc1-n1cnnn1	61*	/	/	/	/	1	-6	-5	/	1.8
O=C(NCc1ccco1)c1ccc(Cl)cc1[N+](=O)[O-]	4	1.2	5	6	0.8	3	0	-9	i	-0.5
COc1ccc(N=C2S/C(=C\c3ccc(OC(C)C(=O)O)c(OC)c3)C(=O)N2CCc2c[nH]c3ccccc23)cc1 (stereo not drawn)	-15	-1.0	15	8	8.8	2	/	/	i	3.0
Cc1cc(C)c2c(c1)C1C=CCC1C(c1ccc(S(=O)(=O)N3CCOCC3)cc1)N2 (stereo not drawn)	23	/	/	/	/	24	-7	0	/	2.9
COc1cccc(-c2nn(-c3ccccc3)cc2C(=O)n2nnc3ccccc32)c1	-11	/	/	/	/	-7	-10	37	/	3.6
CCOC(=O)C1CCN(Cc2coc3c(Cl)cc(Cl)cc3c2=O)CC1	0	/	/	/	/	-8	-2	2	/	-2.7
CN(CC1CCOCC1)C(=O)CC1C(=O)NCCN1Cc1ccc(F)c(F)c1 (stereo not drawn)	-4	-0.9	7	13	0.5	2	2	-20	i	1.3
Cc1c(C(=O)NN)nn(-c2ccc(F)cc2)c(=O)c1C#N	-6	-0.7	0	11	-0.3	6	-3	-65	i	0.2
O=C(c1cc([N+](=O)[O-])ccc1N1CCOCC1)N1CCCCC1	-17	-0.9	5	3	-4.9	3	/	1	i	0.8
CC(=O)Nc1ccc(NC(=O)CSc2nnc(CC(C)O)n2-c2ccccc2)cc1 (stereo not drawn)	-1	-17	4	6	-2.3	-9	/	1	i	-0.9
CC(O)CNc1nc2c(c(=O)n(Cc3ccc(Cl)cc3)c(=O)n2C)n1C (stereo not drawn)	6	2.9	7	5	1.7	-2	-2	0	i	4.1
O=C1CCCC2=C1C(c1cccs1)n1nc(SCc3ccc(C(=O)O)cc3)nc1N2 (stereo not drawn)	-13	-0.7	3	-7	-2.6	-2	3	-8	i	4.7
Cc1cc(=O)oc2cc(Nc3ccccc3)ccc12	-9	/	/	/	/	9	-5	/	/	4.3
COc1ccc(CNC(=O)CSc2nc3ccccc3n2C(C)=O)cc1	-4	-2.7	-8	-2	0.2	1	-6	-17	i	-0.9
C/C(=N\NC(=O)c1nnn(-c2nonc2N)c1CN(C)c1ccccc1)c1ccccn1	31	/	/	/	/	/	86*	1	/	4.5
COc1ccc(C(C)=O)cc1CSc1nnc(C)s1	-10	/	/	/	/	2	5	-4	/	3.7
O=C(c1cccc(S(=O)(=O)Nc2ccccc2Cl)c1)N1CCN(C(=O)c2ccco2)CC1	26	-0.5	-7	-12	-1.2	6	5	-2	i	-2.9
COc1ccc(N(CC(=O)Nc2ccc(C)cn2)S(=O)(=O)c2c(C)noc2C)cc1	9	/	/	/	/	-4	1	-2	/	3.2
Cn1c(=O)c2c(O)c(C=NCc3ccccc3)c(=O)n(C)c2n(C)c1=O	-8	1.4	/	/	/	6	-13	-7	i	-2.0
O=C1CSC(=Nc2ccc(Cl)cc2)N1Cc1ccco1	20	-0.1	-26	-30	-2.2	4	-1	-5	i	-0.3
Cc1cc(=O)n2nc(N3CCCC(C(=O)NCc4cccc(Br)c4)C3)sc2n1 (stereo not drawn)	11	0.3	-3	0	1.0	4	0	1	i	4.1
CC1CCc2sc(C(=O)NCC(c3ccco3)N3CCCCC3)cc2C1 (stereo not drawn)	/	4.7	-15	-40	0.9	/	9	-3	i	/
CCC(=O)NCCCCNC(=O)CC	-13	/	/	/	/	8	-8	-18	/	-0.8
Cc1ccccc1C(=O)NNC(=O)CCc1ccccc1	0	-1.5	10	1	-1.6	-14	-9	-7	i	-1.3
CCCNC(=O)CCn1c(=S)oc2ccccc21	-18	-0.7	11	18	-3.0	-19	-4	-4	i	-0.8
N#C/C(=C\C=C\c1ccccc1)C(=O)NCc1cccnc1	27	0.6	-5	2	-2.3	-11	-11	/	i	6.8
CCC1Nc2ncnc(N3CCCCC3)c2N(Cc2ccc(Cl)cc2)C1=O (stereo not drawn)	/	4.0	-29	-53	-8.8	/	-4	4	i	/
COCCNC(=O)c1ccc(C)c(NC(=O)C2=C(C)OCCS2)c1	-16	2.9	10	10	-0.3	-3	-4	10	i	4.3
COc1ccc(-n2c3c(cc(C(=O)NCc4ccco4)c2=O)C(=O)CC(C)(C)C3)cc1	44	0.7	11	0	3.8	-2	-4	-59	i	-1.1
CCOc1ccc(-c2nn3c(-c4ccc(F)cc4)nnc3s2)cc1	0	/	/	/	/	3	0	4	/	1.6
CC1(c2cccc(Br)c2)NC(=O)N(CC(=O)Nc2ccc3c(c2)OCCO3)C1=O (stereo not drawn)	/	2.7	-16	-13	-11	/	0	/	i	/
COc1ccc(C(=O)OCc2c(C)noc2C)cc1	4	-1.5	2	-1	3.9	-7	0	3	i	3.3
CCc1c(O)nc(SCC(=O)Nc2nc3ccccc3s2)n(-c2ccc(C)cc2)c1=O	-11	-6.1	4	6	-0.4	-6	-3	98*	i	-2.5
CCOC(=O)c1cnc2c(cnn2C)c1NCCC(O)C(F)(F)F (stereo not drawn)	5	/	/	/	/	3	-2	-1	/	-1.7
Cc1ccc(NC2CCCN(C(=O)c3ccc(-n4ccnc4)cc3)C2)cc1C (stereo not drawn)	25	-6.4	-4	-8	-2.0	-4	-2	62	i	-3.3
Next section.
SMILES	T cruzi repl	MLL AF4-AF9 inh	Ecoli rRNA inh	Ecoli rRNA inh OD600	Ecoli rRNA inh RFP	Calb FLC	Beta cell apopt	ALR inh	FGF22 binding	RanGTP-Imp inh
CCNC(=S)NNC(=O)c1cc(-c2cccc(OC)c2)nc2ccccc12	7	/	/	/	/	22	12	36	/	3.3
O=C(CCC(=O)N1CCN(C2CCCC2)CC1)Nc1nnc(C(F)(F)F)s1	14	/	/	/	/	0	-12	-5	/	7.4
Cc1cc(C)c(S(=O)(=O)N(C)c2ccccc2)c(C)c1	23	-3.5	-32	-48	-5.8	-26	-3	-17	i	-3.2
CCC1CCCCN1C(=O)CCS(=O)(=O)c1ccc2c(c1)CCN2C(C)=O (stereo not drawn)	-2	-2.7	6	8	2.4	-10	0	-2	i	-1.7
CCN(CC)S(=O)(=O)c1ccc(C(=O)N2CCN(c3ncccn3)CC2)cc1	3	2.3	0	0	0.8	-14	-7	0	i	1.7
Cc1ccc(C(=O)COC(=O)c2ccc(O)cc2)cc1	-13	-1.4	-27*	-17*	-0.5*	-35	-6	-5	i	2.3
c1coc(-c2nnc3sc(C4CCCCC4)nn23)c1	5	/	/	/	/	-20	-3	-1	/	0.1
CN(Cc1ccncc1)C1CC(=O)N(c2ccc(F)cc2)C1=O (stereo not drawn)	-21	-16	4	14	-1.7	-5	-6	10	i	3.1
CN(C(=O)CSc1nnc(Cc2ccccc2F)n1N)C1CCCCC1	/	-9.6	8	7	3.7	/	-4	-6	i	/
COc1ccc(CCC(=O)N2c3ccccc3CC2C)cc1 (stereo not drawn)	3	/	/	/	/	6	2	1	/	-3.7
CC(=O)[C@@]1(O)CC[C@H]2[C@@H]3CCC4=CC(=O)CC[C@]4(C)[C@H]3[C@@H](O)C[C@@]21C	-4	1.1	/	/	/	20	-2	-9	i	7.0
O=C(NCCCN1CCOCC1)/C(=C/c1cccnc1)NC(=O)c1ccccc1	-4	-1.0	6	14	0.0	4	/	-3	i	?
COC(=O)COc1ccc(S(=O)(=O)N2CCCCCC2)cc1	-8	-0.5	22	14	2.2	5	-4	-3	i	?
COC(=O)CCCC(=O)N1CCCC(N(C)CCc2ccccc2)C1 (stereo not drawn)	12	-2.4	7	17	-1.4	-11	/	/	i	0.0
Cc1nnc(SCC(=O)NNC(=O)c2ccco2)n1-c1cccc(Cl)c1	-21	-1.9	12	1	-2.4	13	-3	/	/	0.3
CN1CCN(CC(=O)NC2CCCCC2)CC1	-7	/	/	/	/	0	-8	-4	/	1.5
CCCS(=O)(=O)c1nc(S(=O)(=O)c2ccc(C)cc2)c(NCc2ccco2)s1	19	/	/	/	/	1	-7	-9	/	6.8
Cc1ccc(/C=C2\SC(=S)N(CCCC(=O)N3CCOCC3)C2=O)cc1	-10	6.0	-26*	-12*	4.3*	2	-4	-7	i	0.2
CC1CN(CCOCCSc2ccc(Cl)cc2)CC(C)O1 (stereo not drawn)	62*	-2.0	-1	-2	-0.4	3	/	-1	i	4.9
